A1 inh: blocks A1 activity | AID 2241 | caspase activation, % (test concentration not listed) | MEF A1-2A-BIM cells, caspase-Glo luminescence, 3 h; percent of clofoctol signal, DMSO as zero | actives 0.51% (n = 21,000);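 active = most replicate scores above 10, or exactly half above 10 with mean activity above 10; inconclusive = mean activity below 10 while half the replicates exceed 10; inactive = most replicate scores below 10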;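 note: effector caspase 3 and 7 activity cleaving a DEVD luciferin substrate; 50 nL library stock added to about 30 µL; numbers are from one replicate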
BJeLR viability: lowers viability of BJeLR cells; BJeLR fibroblasts viability, CellTiterGlo ATP luminescence, 48 h; HRASV12, hTERT and SV40 LT/ST transformed; viability loss activity score, % (no concentration beside the values); actives 0.64% (n = 30,000); AID 2275; in the data active = viability loss activity score above about 50%; inconclusive = no clear call, values can overlap the other calls; inactive = below about 35%; about a fifth of its hits are not listed in these tables;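 note: higher score means fewer live cells and less ATP luminescence; stock transfer was 50 or 100 nL into about 30 µL; 0% = vehicle wells and 100% = a reference killing control; one replicate is shown; the record names a cut of 85%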
An asterisk follows results filed as active; ? = inconclusive; . = not tested or not shown.

cpd	canonical_smiles	A1 inh	BJeLR viability
1	CCCCC1(CC(=O)N2CCOCC2)C(=O)N(c2ccccc2)N(c2ccccc2)C1=O	0.6	2.7
2	C[C@H]1CN([C@@H](C)CO)C(=O)c2cccc(NS(=O)(=O)c3ccc(F)cc3)c2O[C@H]1CN(C)Cc1ccc2c(c1)OCO2	.	-1.3
3	C=CC(C)(O)CC/C=C(\C)C(=O)OCC1CCC2C(C(=O)O)=COC(OC3OC(CO)C(O)C(O)C3O)C12 (stereo not drawn)	-0.3	-1.2
4	CCN=C(Nc1cc(-c2ccccc2)[nH]n1)SC	-2.7	-5.0
5	C[C@H](CO)N1C[C@H](C)[C@@H](CN(C)S(=O)(=O)c2ccccc2)Oc2ccc(NC(=O)Cc3cn(C)c4ccccc34)cc2C1=O	-0.1	0.1
6	COc1cc([C@@H]2c3cc4c(cc3[C@H](O)[C@H]3COC(=O)[C@H]23)OCO4)cc(OC)c1OC	2.4	54.2*
7	COc1ccc(C(=O)OC2=C(c3ccccc3)C(=O)c3ccccc3C2=O)cc1	.	-6.2
8	CC1(C)O[C@@H]2CC3C4C[C@H](F)C5=CC(=O)CC[C@]5(C)C4[C@@H](O)C[C@]3(C)[C@]2(C(=O)CO)O1 (stereo partly drawn)	0.7	-3.0
9	C[C@H]1CN([C@@H](C)CO)C(=O)c2cc(NS(=O)(=O)c3ccccc3)ccc2O[C@H]1CN(C)S(=O)(=O)c1ccc(F)cc1	0.7	-4.0
10	Nc1c(N2CCOCC2)c2ccccc2oc1=O	0.3	0.3
11	C[C@H]1CN([C@@H](C)CO)C(=O)c2cc(NC(=O)Nc3cccc4ccccc34)ccc2O[C@H]1CN(C)Cc1ccc(C(F)(F)F)cc1	1.0	-4.4
12	COc1ccc(OC)c(C(=O)CC2(O)C(=O)Nc3ccccc32)c1 (stereo not drawn)	0.0	-6.8
13	O=S(=O)(Nc1nc2ccccc2nc1Nc1ccccc1F)c1ccc(Cl)cc1	0.5	11.1
14	O=C(NCCN1CCOCC1)c1cccc(Cl)c1	-0.7	-0.9
15	O/N=C/c1c(O)c(Br)cc2oc3c(c12)CCCC3	0.8	-3.5
16	Cc1ccc(CN2CCSc3ccc(C(=O)Nc4ccc(F)cc4)cc32)cc1	-0.4	0.2
17	C/C(=N\N(C)C)c1cc(Cl)cc(Cl)c1O	-1.2	-1.5
18	C[C@H](CO)N1C[C@H](C)[C@@H](CN(C)Cc2ccc(-c3ccccc3)cc2)Oc2ccc(NC(=O)CCC(F)(F)F)cc2C1=O	0.5	-5.3
19	COC(=O)c1ccc(CSc2nnc3n(N)cnn23)cc1	0.4	-6.3
20	CC(C)OC(=O)c1ccc(NC(=O)CSc2nc3ncccc3[nH]2)cc1	-0.6	7.4
21	Cc1ccc(S(=O)(=O)N(C)C[C@H]2Oc3c(NC(=O)Nc4ccc(C(F)(F)F)cc4)cccc3C(=O)N([C@@H](C)CO)C[C@@H]2C)cc1	.	-2.2
22	CCC(C)C1N=C2c3ccccc3N=C(SCc3cc(=O)n4ccccc4n3)N2C1=O (stereo not drawn)	0.8	2.0
23	CC#CC(=O)Nc1ccc2ncnc(Nc3cccc(Br)c3)c2c1	4.2	5.4
24	Cc1ccccc1C(C#N)C(CC#N)c1ccccc1 (stereo not drawn)	-0.3	4.9
25	Cc1cc(C)c2c(n1)nn1c(C)c(CCC(=O)NC3CCCC3)c(C)nc21	0.1	1.3

Ordered by molar mass (smallest number first): part of the list above.
cpd	canonical_smiles	A1 inh	BJeLR viability
24	Cc1ccccc1C(C#N)C(CC#N)c1ccccc1 (stereo not drawn)	-0.3	4.9
14	O=C(NCCN1CCOCC1)c1cccc(Cl)c1	-0.7	-0.9
15	O/N=C/c1c(O)c(Br)cc2oc3c(c12)CCCC3	0.8	-3.5
22	CCC(C)C1N=C2c3ccccc3N=C(SCc3cc(=O)n4ccccc4n3)N2C1=O (stereo not drawn)	0.8	2.0
3	C=CC(C)(O)CC/C=C(\C)C(=O)OCC1CCC2C(C(=O)O)=COC(OC3OC(CO)C(O)C(O)C3O)C12 (stereo not drawn)	-0.3	-1.2

Next results.
cpd	canonical_smiles	A1 inh	BJeLR viability
26	C[C@H](CO)N1C[C@H](C)[C@@H](CN(C)C(=O)Nc2ccc(C(F)(F)F)cc2)Oc2c(NS(=O)(=O)c3cn(C)cn3)cccc2C1=O	.	-1.9
27	CNC[C@@H]1Oc2ccc(NC(=O)Nc3ccc(C(F)(F)F)cc3)cc2C(=O)N([C@@H](C)CO)C[C@H]1C	0.1	7.3
28	C[C@@H]1CN([C@H](C)CO)C(=O)c2cccc(NS(=O)(=O)c3ccccc3)c2O[C@@H]1CN(C)S(=O)(=O)c1ccc(Cl)cc1	.	2.5
29	CC(=O)N[C@@H](CSC/C=C(\C)CC/C=C(\C)CC/C=C(\C)CCC=C(C)C)C(=O)O	-0.4	20.7
30	C[C@@H]1CN([C@H](C)CO)C(=O)c2cccc(NC(=O)Nc3ccc(C(F)(F)F)cc3)c2O[C@H]1CN(C)CC1CCCCC1	.	-6.0
31	Cc1ccc(NC(=S)C(C#N)C(N)=O)cc1Cl (stereo not drawn)	-6.2	-3.9
32	CC1=NN(c2ccc(C)cc2)C(=O)C1=C1SCCCS1	.	4.2
33	Cc1noc(C)c1S(=O)(=O)Nc1ccc2c(c1)C(=O)N([C@H](C)CO)C[C@H](C)[C@H](CN(C)C(=O)Nc1cccc3ccccc13)O2	-0.4	-3.3
34	CC(C)NC(=O)Nc1ccc2c(c1)C(=O)N([C@H](C)CO)C[C@@H](C)[C@H](CN(C)Cc1ccc(C(=O)Nc3ccccc3N)cc1)O2	.	-1.7
35	Cc1nc(NCCc2ccccc2)c2c3c(sc2n1)CCCC3	-0.4	0.3
36	COC(=O)COc1ccc2c(=O)c(Oc3ccc(OC)cc3)coc2c1	0.4	1.2
37	C[C@@H]1CN([C@H](C)CO)C(=O)c2cccc(NC(=O)Nc3cccc4ccccc34)c2O[C@@H]1CN(C)S(=O)(=O)c1ccccc1	.	-3.0
38	CN1CCN(CCNC(=O)Cn2cccc2C(=O)c2ccccc2)CC1	0.4	2.9
39	O=S1(=O)CC(Sc2ccc(Cl)cc2)c2ccccc21 (stereo not drawn)	0.8	-0.9
40	CCCN1Cc2cccc(C(N)=O)c2C1=O	-0.7	-0.9
41	C[C@H]1CN([C@@H](C)CO)C(=O)c2cccc(NC(=O)Nc3ccc4c(c3)OCO4)c2O[C@H]1CN(C)Cc1ccc(C(=O)O)cc1	.	0.3
42	C[C@H](CO)N1C[C@H](C)[C@H](CN(C)C(=O)Nc2ccc(C(F)(F)F)cc2)Oc2ccc(NC(=O)CCC(F)(F)F)cc2C1=O	-1.0	5.0
43	COc1ccc(OC)c(-n2c(=S)[nH]c3cc(C(=O)Nc4ccc(C)c(Cl)c4)ccc3c2=O)c1	-0.5	2.0
44	C[C@H](CO)N1C[C@H](C)[C@@H](CN(C)Cc2ccncc2)Oc2ccc(NS(=O)(=O)c3ccccc3)cc2C1=O	-0.1	2.0
45	C=CCn1c(-c2ccc(OC)cc2)csc1=Nc1ccc(Br)cc1	-0.1	10.8
46	COc1cc2nc3occc3c(OC)c2cc1OCC(OC(C)=O)C(C)(C)OC(C)=O (stereo not drawn)	0.0	1.2
47	O=S(=O)(Nc1ccc2c(c1)OC1(CCCCC1)O2)c1ccc2ccccc2c1	-0.6	-5.6
48	C[C@H]1CN([C@@H](C)CO)C(=O)c2cccc(NS(=O)(=O)c3cccs3)c2O[C@@H]1CN(C)Cc1ccncc1	.	5.6
49	O=C(CCc1ccc(O)cc1)c1c(O)cc(O)cc1O	0.1	-1.0
50	Cc1ccc(NS(=O)(=O)c2cccc(C(=O)Nc3ccccc3)c2)cc1	-0.8	3.6
51	Cc1nc2ccc(NC(=O)C(C)(C)C(=O)Nc3ccc4nc(C)c(C)nc4c3)cc2nc1C	0.5	-0.4
52	CCOc1ccc2cc(C3CC(c4ccco4)=NN3S(=O)(=O)c3ccccc3)c(Cl)nc2c1 (stereo not drawn)	.	3.0
53	C[C@@H]1CN([C@@H](C)CO)C(=O)c2cc(NC(=O)Cn3cnnn3)ccc2O[C@@H]1CN(C)Cc1ccc(Oc2ccccc2)cc1	-0.3	0.0
54	O=C(Nc1cccnc1)c1ccc(COc2ccccc2Br)cc1	0.1	4.9
55	Cc1c(C)c(C)c(C(=O)CCc2cccc(NC(=O)C3CCC3)c2)c(C)c1C	.	5.3
56	CCCS(=O)(=O)NCc1cn2c(C)csc2n1	-0.5	-5.8
57	CCN(CC)C(=O)Cn1c(=O)n(Cc2ccccc2)c(=O)c2c3c(sc21)CCC3	.	5.1
58	C=CCNC(=O)CSc1nnc(-c2ccc3nonc3c2)n1C	0.4	5.0
59	Cc1cccc(C)c1NC1=NC(C)(CO)CS1 (stereo not drawn)	-0.6	-9.3
60	C[C@@H]1CN([C@H](C)CO)C(=O)c2cc(NC(=O)Nc3ccc4c(c3)OCO4)ccc2O[C@H]1CN(C)S(=O)(=O)c1ccccc1	0.3	-3.6
61	COc1ccc(S(=O)(=O)Nc2cncc(C(=O)N3CCN(c4ccc(F)cc4)CC3)c2)cc1	0.0	1.6
62	COC(=O)c1ccccc1NC(=O)Cc1ccc(Cl)cc1	-0.2	3.0
63	Cc1ccc(C(O)(COC(=O)C(C)C)COC(=O)C(C)C)c(O)c1	-0.1	0.4
64	Cc1nn(C)c(C)c1S(=O)(=O)N(CC(=O)N1CCCC1)c1ccc(C(C)C)cc1	.	-5.3
65	CC(C)OC(=O)C(C)Oc1ccc2c(-c3ccccc3)cc(=O)oc2c1 (stereo not drawn)	0.4	-6.2
66	C[C@H](CO)N1C[C@H](C)[C@H](CN(C)S(=O)(=O)c2cccs2)Oc2ccc(NC(=O)CCCN(C)C)cc2C1=O	0.1	4.4
67	C[C@@H]1CN([C@@H](C)CO)C(=O)c2cc(NS(=O)(=O)c3cccs3)ccc2O[C@H]1CN(C)Cc1ccc(C(F)(F)F)cc1	0.3	0.0
68	C[C@H]1CN([C@@H](C)CO)C(=O)c2cccc(NS(=O)(=O)c3cn(C)cn3)c2O[C@@H]1CN(C)Cc1ccccc1	.	-5.7
69	NS(=O)(=O)c1ccc(S(=O)(=O)NCCc2c[nH]c3ccccc23)cc1	.	3.1
70	COC1=CC(C)c2c(c(OC)c3occ(C)c3c2C)C1=O (stereo not drawn)	0.2	-0.5
71	CC(C)NC(=O)N(C)C[C@@H]1Oc2c(NC(=O)Nc3ccccc3)cccc2C(=O)N([C@@H](C)CO)C[C@@H]1C	.	9.7
72	C[C@H](CO)N1C[C@H](C)[C@@H](CN(C)S(=O)(=O)c2ccc(F)cc2)Oc2ccc(NC(=O)c3ccncc3)cc2C1=O	-0.3	-0.2
73	C[C@H](CO)N1C[C@H](C)[C@@H](CN(C)S(=O)(=O)c2cccs2)Oc2c(NS(=O)(=O)c3cn(C)cn3)cccc2C1=O	.	4.8
74	Cc1cccnc1NC(=O)NC(C)(C(F)(F)F)C(F)(F)F	-0.1	1.4
75	C[C@@H]1CN([C@H](C)CO)C(=O)c2cc(NC(=O)Nc3ccc(F)cc3)ccc2O[C@@H]1CN(C)S(C)(=O)=O	0.1	-1.5

(more compounds)
cpd	canonical_smiles	A1 inh	BJeLR viability
76	COc1ccc2c(c1)OCC(Cc1ccc(OC)c(O)c1)C2=O (stereo not drawn)	1.5	?
77	CCOC(=O)c1c(C)oc2c1c(C=NCCC1=CCCCC1)c(O)c1ccccc12	.	-8.9
78	O=C(CN1C(=O)CCc2ccccc21)NCCc1ccccc1	0.4	-1.4
79	COc1ccc(S(=O)(=O)N(C)C[C@@H]2Oc3c(NC(=O)Nc4c(C)noc4C)cccc3C(=O)N([C@H](C)CO)C[C@H]2C)cc1	.	1.9
80	CN(C)/C=C(\C(=O)Nc1ccc(F)c(F)c1F)S(=O)(=O)c1ccccc1	0.6	-0.5
81	Cc1ccc(S(=O)(=O)Nc2cccc3c2O[C@@H](CN(C)Cc2ccc(C(F)(F)F)cc2)[C@@H](C)CN([C@H](C)CO)C3=O)cc1	.	4.2
82	C[C@H]1CN([C@@H](C)CO)C(=O)c2cc(NC(=O)C3CCCCC3)ccc2O[C@H]1CN(C)Cc1ccncc1	0.5	2.8
83	CC(C)NC(=O)N(C)C[C@@H]1Oc2c(NC(=O)Nc3ccc(C(F)(F)F)cc3)cccc2C(=O)N([C@H](C)CO)C[C@H]1C	.	-3.2
84	C[C@@H]1CN([C@@H](C)CO)C(=O)c2cccc(NC(=O)c3ccncc3)c2O[C@H]1CN(C)C(=O)Nc1ccc(C(F)(F)F)cc1	.	4.1
85	COc1ccc(S(=O)(=O)N(C)C[C@H]2Oc3c(NC(=O)c4ccc(-c5nccs5)cc4)cccc3C(=O)N([C@H](C)CO)C[C@H]2C)cc1	.	5.9
86	Cc1ccc(S(=O)(=O)Nc2ccc3c(c2)C(=O)N([C@H](C)CO)C[C@H](C)[C@@H](CN(C)C(=O)Nc2ccc(F)cc2)O3)cc1	1.1	0.8
87	C[C@H](CO)N1C[C@H](C)[C@H](CN(C)S(=O)(=O)c2ccc(F)cc2)Oc2ccc(NC(=O)Nc3ccc(F)cc3)cc2C1=O	0.5	-4.1
88	Cc1noc(C)c1S(=O)(=O)Nc1ccc2c(c1)C(=O)N([C@H](C)CO)C[C@H](C)[C@H](CN(C)S(=O)(=O)c1ccc(Cl)cc1)O2	-0.5	-2.6
89	COc1ccc(NC(=O)N(C)C[C@H]2Oc3ccc(NS(=O)(=O)c4ccccc4)cc3C(=O)N([C@H](C)CO)C[C@@H]2C)cc1	0.1	0.0
90	C[C@H](CO)N1C[C@H](C)[C@H](CN(C)S(=O)(=O)c2ccccc2)Oc2ccc(NS(=O)(=O)c3cccs3)cc2C1=O	1.0	-4.8

Compound activity from PubChem.

This is a subset; the hit share may differ from the screen's.
